Cruzain noTriton: inhibitors of Trypanosoma cruzi cruzain without detergent. P25779. purified cruzain, Z-FR-AMC fluorescence, no detergent. Potency, µM, inactives show max response, negative = inhibition, hits mostly inhibitors. hit rate 2.3% among 200,000. AID 1476; active means well fitted curve in the direction sought with a large enough effect; inconclusive means small, poorly fitted or top-dose-only effect, or another doubt; inactive means no such curve, though single readings can be large; an effect the other way counts as inactive or inconclusive;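 further: plate controls were enzyme without inhibitor for no effect and buffer without enzyme for full effect; nearly all actives have a fitted effect of over 40% in size; top concentration of the series not given in the record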
Target sequence (P25779 123-467 limits assumed): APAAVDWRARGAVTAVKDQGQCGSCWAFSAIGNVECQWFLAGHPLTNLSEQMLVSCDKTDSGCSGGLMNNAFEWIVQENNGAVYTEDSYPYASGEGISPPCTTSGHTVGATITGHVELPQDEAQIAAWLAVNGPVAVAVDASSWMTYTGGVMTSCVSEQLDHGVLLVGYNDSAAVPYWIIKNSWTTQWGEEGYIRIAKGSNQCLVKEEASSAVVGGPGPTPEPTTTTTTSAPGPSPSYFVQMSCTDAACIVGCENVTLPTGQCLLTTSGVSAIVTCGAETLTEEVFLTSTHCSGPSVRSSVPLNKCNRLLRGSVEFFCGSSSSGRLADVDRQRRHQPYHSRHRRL
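Purified cruzain at 1.5 nM, pre-incubated 15 min with compound at room temperature in 100 mM sodium acetate pH 5.5, 5 mM DTT, 0.00005% Triton X-100. Reaction started with 2 uM Z-FR-AMC; AMC fluorescence increase over 60 s gives rate.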
MARV entry inh: blocks Marburg virus binding to or entry into cells. Marburg virus pseudotyped entry inhibition, cell reporter; control for the full effect not named in the record; about a third of the inactives were read at about 46 µM. Potency, µM (highest dose often 37.8 µM), without a hit: at the highest dose activity change, negative = inhibition, hits mostly inhibitors. hit rate 1.8% among 300,000. AID 540276; active = well fitted inhibition curve with a large enough effect; inconclusive = small, poorly fitted or top-dose-only effect, or effect the other way; inactive = flat fitted curve, though single readings scatter; tested in HEK293 cells; about a fifth of its hits are not listed in these tables; further: on the % scale 0 is the no-effect control and ±100 the full control effect; luciferase read-out
NS1 inh: influenza NS1 inhibition; S. cerevisiae slowed by influenza A NS1, growth recovery by OD600; Potency, µM (top dose mostly 46.1 µM), for inactives: at the top dose activity, positive = more growth; hit rate 0.4% among 270,000; AID 2326; further: actives are rising curves; nearly all actives have a fitted effect of over 50% in size
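A cell-based growth assay was used: compounds that relieve NS1-induced slow growth of budding yeast raise OD600. Assay medium was yeast nitrogen base with ammonium sulphate and -URA supplement, pH 6.0, with 2% galactose.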
Lassa entry inh: blocks Lassa virus binding to or entry into cells | Lassa virus pseudotype entry inhibition, cell reporter; control for the full effect not named in the record | Potency, µM (doses to about 37.9 µM), for inactives: at the top dose activity change, negative = inhibition, most hits filed as inhibitors | hit rate 1.2% among 300,000; active means well fitted inhibition curve with a large enough effect; inconclusive means small, poorly fitted or top-dose-only effect, or effect the other way; inactive means flat fitted curve, though single readings scatter; tested in HEK293 cells; further: on the % scale 0 is the no-effect control and ±100 the full control effect; nearly all actives have a fitted effect of over 50% in size; luciferase read-out
StopGo reporter: FMDV 2A StopGo reporter, luciferase signal | AID 1159524 | hit rate 1.2% among 410,000 | Potency, µM (titrated, usually from 57.9 µM), for inactives: top-dose signal change, negative = less light | human cells with a luciferase reporter of 2A StopGo recoding; control for the full effect not named in the record; active = well fitted falling curve with a large enough effect; inconclusive = small, poorly fitted or top-dose-only effect; inactive = no such curve, though single readings can be large or run the other way; tested in HEK293T cells; further: on the % scale 0 is the no-effect control and ±100 the full control effect; nearly all actives have a fitted effect of over 45% in size; luciferase light after 4 h
Cruzain inh Det: blocks cruzain activity in presence of Triton detergent; purified cruzain, Z-FR-AMC fluorescence, 0.01% Triton; Potency, µM, for the others: max response, negative = inhibition, usual class: inhibitors; hit rate 0.43% among 200,000; active means well fitted curve in the direction sought with a large enough effect; inconclusive means small, poorly fitted or top-dose-only effect, or another doubt; inactive means no such curve, though single readings can be large; an effect the other way counts as inactive or inconclusive;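 further: plate controls were neutral wells for no effect and buffer without enzyme for full effect; nearly all actives have a fitted effect of over 40% in size; top concentration of the series not given in the record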
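Steps: dispense cruzain (1.5 nM final) in acetate buffer pH 5.5 with DTT and 0.01% Triton X-100; pin-transfer compounds; incubate 15 min RT; add Z-FR-AMC (2 uM final); read fluorescence every 30 s, using the 60 s intensity change.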
RE007 growth inh: less growth of the S. pombe RE007 Vpr strain; S. pombe RE007 Vpr strain, BacTiter-Glo ATP luminescence, 24 h; control for the full effect not named in the record; Potency, µM (highest dose often 92.2 µM), for the others: top-dose activity change, negative = less growth; hit rate 0.21% among 360,000; AID 651644; active = well fitted falling curve with a large enough effect; inconclusive = small, poorly fitted or top-dose-only effect; inactive = no such curve, though single readings can be large or run the other way;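 further: on the % scale 0 is the no-effect control and ±100 the full control effect; nearly all actives have a fitted effect of over 50% in size; the assay follows cell death caused by Vpr and the record does not say whether a fall means rescue or toxicity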
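Fission yeast strain RE007, carrying one chromosomally integrated HIV-1 vpr copy, was seeded at OD 0.01 in PMG+AL medium with 23 nL pinned compound. After 24 h at 30 °C and 99% humidity, viability was read by BacTiter-Glo luminescence.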
SARS PLpro yeast: inhibitors of SARS-CoV papain-like protease in yeast; S. cerevisiae expressing SARS-CoV PLpro, growth rescue; control for the full effect not named in the record; hit rate 0.19% among 330,000; Potency, µM (titrated, usually from 32.9 µM), for inactives: at the top dose activity, positive = growth rescue; further: 0% is about no effect; nearly all actives have a fitted effect of over 55% in size; growth read by luminescence after 48 h
Numbers without * were called inactive; u = inconclusive; x = no result given; & = joins results of further samples; [ ] = dose if it differs, or a comment. Unless noted, the call rests on the fitted dose curve; in most records, active means well fitted rising curve with a large enough effect; inconclusive means small, poorly fitted or top-dose-only effect; inactive means no such curve, though single readings can be large or run the other way. Potency means the concentration at half of the fitted maximal effect. Rows were taken by chance; any-hit rate near 4.6%.

SMILES | Cruzain noTriton | MARV entry inh | NS1 inh | Lassa entry inh | StopGo reporter | Cruzain inh Det | RE007 growth inh | SARS PLpro yeast
CC(=O)c1ccc(Nc2ccc([N+](=O)[O-])c3nonc23)cc1 | x | x | -23% | x | 18% | x | -20% | -1%
CC(=O)C1CCC2C3CCC4CC(OC(=O)CCC(=O)O)CCC4(C)C3C(=O)CC12C (stereo not drawn) | x | -1%[46.1 µM] | x | -1%[46.1 µM] | -11% | x | -8% | x
CCCCc1ccc(NC(=O)OC)cc1 | 4% | 5% | -52% | u | 23% | -1.6% | 11% | 1%
O=C(NCCC1=CCCCC1)c1cc(S(=O)(=O)N2CCCCC2)ccc1Cl | x | 11%[46.1 µM] | x | 18% | -15% | x | -11% | -2%
O=C(NC1CCCCC1)NC1C2CC3CC(C2)CC1C3 (stereo not drawn) | x | x | -2% | x | 0% | x | 5% | -1%
COC(=O)c1cc2c(=O)c3ccccc3oc2nc1C | x | -4% | -2% | 2% | 55%[activator] | x | -2% | 4%
COc1cc(C(=O)Nc2nc(C)cc(C)n2)cc(OC)c1OC | x | 21% | 6% | -1% | -12% | x | 3% | 0%
COc1cccc(C(=O)Nc2ccc(S(=O)(=O)Nc3nccc(C)n3)cc2)c1 | 2% | u | 0% | 0% | 17% | -4.6% | 21% | -2%
O=S(=O)(NCCc1csc2nc(-c3ccc(F)cc3)nn12)c1ccc(Br)cc1 | 2% | x | x | 8%[46.1 µM] | 3% | -7.5% | x | x
Cc1ccc2oc(C(=O)N(Cc3nccn3C)C(C)C)c(C)c2c1 | x | x | -3% | x | 19% | x | -12% | 10%
CCOC(=O)/C(=N\Nc1ccc(Br)cc1)N1CC(C)OC(C)C1 (stereo not drawn) | x | -16% | -129% | 8% | -16% | x | 47% | -13%
CCOc1ccc(CCn2c(-c3ccco3)nc3ccccc3c2=O)cc1OCC | 28% | 2.3µM* | 11% | 6.5µM* | u | -2.7% | 11% | 0%
CC1=CC(C)(C)N2C(=O)C3(N=C(N)NC(Nc4ccccc4)=N3)c3cc(C)cc1c32 (stereo not drawn) | -4% | u | -8% | u | u | -8.0% | 18% | 0%
N#Cc1c(-c2ccccc2)nc(SCC(=O)Nc2ccccc2F)[nH]c1=O | -6% | 21% | 0% | 15% | -13% | -7.9% | -3% | 13%
CC1(c2nnc(-c3cccc(Cl)c3)o2)CC(c2cccc([N+](=O)[O-])c2)=NO1 (stereo not drawn) | x | x | 2% | x | -22% | x | 8% | -13%
O=C(OCc1nc2ccccc2s1)c1ccc([N+](=O)[O-])o1 | x | -1%[46.1 µM] | -66% | x | 35%[activator] | x | u | -45%
O=[N+]([O-])c1ccc2nc(-c3ccncc3)[nH]c2c1 | x | x | 1% | x | 49%[activator] | x | 3% | 0%
COc1cccc2c1cc1c(=O)n(CC(=O)N3CCN(c4cccc(Cl)c4)CC3)nc(C)n12 | 10% | 0%[46.1 µM] | x | x | -5% | 0.3% | x | x
COc1cccc(N2C(=O)NC(=O)/C(=C/c3ccc([N+](=O)[O-])s3)C2=O)c1 | x | -3%[46.1 µM] | -1% | 30% | 0% | x | u | -3%
COc1ccc(C2CC3(CC(C)(C)NC(=S)N3)Oc3cc(O)cc(C)c32)cc1 (stereo not drawn) | -1% | u | 21% | u | -6% | -2.1% | -13% | 12%
COc1ccccc1Cc1nc(-c2ccncc2)no1 | x | x | -8% | x | 9% | x | -7% | -1%
CCN(CC)S(=O)(=O)c1ccc(NC(=O)CSc2nnc(-c3ccc(F)cc3)o2)cc1 | 1% | 0%&0% | -2% | -12% | x | -0.9% | -6% | 4%
CC(=O)OCc1c(C(F)(F)F)nn(C)c1Oc1cccc(C(F)(F)F)c1 | 6% | 0% | 12% | -1% | -4% | -1.0% | 19%[3.69 µM] | -3%
Cc1cccc(N(CC(=O)NCCSCc2cccc(Cl)c2)S(=O)(=O)c2ccccc2)c1C | -13% | u | x | -4%[46.1 µM] | -16% | -5.9% | x | x
O=c1c(-c2ccnn2-c2ccc(F)cc2)cnc2n1CCS2 | -3% | 7% | 1% | 8% | -12% | 0.9% | -3% | -2%
(cont.)
SMILES | Cruzain noTriton | MARV entry inh | NS1 inh | Lassa entry inh | StopGo reporter | Cruzain inh Det | RE007 growth inh | SARS PLpro yeast
CC(C)c1c(C(=O)N/N=C/C=C/c2ccccc2)nnn1-c1nonc1N | x | x | 6% | x | -25% | x | -16% | 0%
CCOc1ccccc1N1CCN(C(=O)CSc2ccc3c(c2)OCCO3)CC1 | x | -12% | x | -5% | u | x | 14% | -2%
Cc1ccc(S(=O)(=O)N2CCC(=O)N2)cc1 | -2% | 11% | 4% | 2% | 15% | 2.5% | -9% | 4%
O=C(NCC1CCCN(C(=O)c2cc(Cl)ccc2F)C1)c1ccc(F)cc1 (stereo not drawn) | x | 4%[46.1 µM] | -1% | 3%[46.1 µM] | -1% | x | 12% | 0%
COCC(=O)N(Cc1cc2cc(OC)ccc2[nH]c1=O)c1ccccc1OC | 10% | -6% | -1% | 1% | -4% | -3.3% | -5% | -1%
NC(=O)c1sc2nc3c(c(-c4ccco4)c2c1N)CCC3 | -1% | -18% | -32% | -14% | x | -7.1% | 5% | -11%
CCOc1ccc(N/C=C/C(=O)c2ccccc2)c([N+](=O)[O-])c1 | u | u | -13% | 1.1µM* | -85% | -4.3% | 73% | -45%
O=C(O)c1ccc(N/N=C/c2cc(Br)cs2)cc1 | x | 5µM* | -112% | u | -72% | x | u | -5%
C=CCn1c(=O)c(C(=O)Nc2ccccc2C(=O)OCC)c(O)c2ccccc21 | 9% | 12%[46.1 µM] | -2% | 0% | u | -11% | 36% | -1%
CSc1ccccc1NC(=O)COC(=O)CCC(=O)c1ccc(F)cc1 | x | 1% | x | x | -16% | x | 1% | -3%
CCn1cc(C(=O)N2CCc3ccccc3C2)c(=O)c2cc(S(=O)(=O)N3CCCCC3)ccc21 | u | -3% | 17% | -1% | x | -9.0% | x | -1%
O=C(Cc1ccccc1)NC(=S)Nc1cc(C(F)(F)F)ccc1Cl | -4% | u | 8% | -1% | -29% | -1.2% | -12% | -3%
COc1ccccc1N1CCN(C(=S)Nc2ccc3nc(N4CCOCC4)cc(C)c3c2)CC1 | x | u | x | u | u | x | 17% | -1%
CNS(=O)(=O)c1ccc(OC)c(-c2nnc3c4ccccc4c(C)nn23)c1 | 5%&-9% | 0%[46.1 µM] | 4% | -11%[46.1 µM] | 30%&5%[activator] | -2.5%&2.9% | -3% | -3%
COc1ccc(CNC(=O)CN(C)S(=O)(=O)c2ccc3nc(C)sc3c2)cc1 | 21% | 7%[46.1 µM] | x | 17%[46.1 µM] | 0% | -2.6% | x | x
O=C(/C=C/Nc1ccc([N+](=O)[O-])cc1)c1ccc(Br)cc1 | 20µM* | -1% | 16% | 25% | 2% | -2.4% | 2% | 8%
Cc1ccc(NC(=O)c2ccc(OCC3CCCO3)cc2)cc1 (stereo not drawn) | -8% | u | -4% | u | -14% | -1.8% | -11% | -10%
COc1ccc(S(=O)(=O)N2CCC(C(=O)NCc3cccs3)CC2)cc1 | x | -17% | -5% | u | -4% | x | -8% | 0%
COc1ccc(-c2nnc(SCC(=O)N(Cc3ccccc3)C(C)(C)C)o2)cc1OC | u | u | -64% | u | 11µM* | -3.8% | 23% | 1%
Cc1nc(N)sc1C(=O)N1N=N1 | x | 4%[46.1 µM] | 3% | 22% | 6% | x | 1% | -1%
O=C1C2CCCCN2C(=O)N1CCCN1CCN(c2cccc(C(F)(F)F)c2)CC1 (stereo not drawn) | x | u | x | -12%[46.1 µM] | -5% | x | 3% | x
COc1cc(CN2CCC(C(=O)N3CCCC(C)C3)CC2)cc(OC)c1O (stereo not drawn) | -5% | -9% | 0% | -12% | x | 2.4% | -16% | 4%
CCC(=O)N1CCc2cc(Br)cc(S(=O)(=O)NCc3cccc(OC)c3)c21 | -5% | -7%[46.1 µM] | x | 6%[46.1 µM] | 14% | -1.9% | x | x
CN(C)C(=O)CSc1nnc(CCN)o1 | -1% | 12% | 6% | u | -11% | 3.5% | -7% | -11%
COC(=O)C1=C(C)NC(=O)NC1c1cn(-c2ccccc2)nc1-c1ccc(OC)c(Cl)c1 (stereo not drawn) | 0% | x | x | -4%[46.1 µM] | 2% | -11% | x | x
(next part)
SMILES | Cruzain noTriton | MARV entry inh | NS1 inh | Lassa entry inh | StopGo reporter | Cruzain inh Det | RE007 growth inh | SARS PLpro yeast
c1ccc2c(c1)Nc1cc3ccccc3cc1S2 | x | 0%[46.1 µM] | 1% | 20% | 33%[activator] | x | -10% | 0%
Cc1ccc(-c2cn3c(n2)sc2cc(C(=O)NC(C)C45CC6CC(CC(C6)C4)C5)ccc23)cc1 (stereo not drawn) | -7% | x | x | 4%[46.1 µM] | 10% | -3.1% | x | x
Cc1csc(SCC(=O)NC(C)c2ccccc2)n1 (stereo not drawn) | x | 7% | x | -7% | -4% | x | 9% | -1%
COc1cc(CNc2ccc(C)c(C)c2)cc(OC)c1OC | 18% | u | u | u | u | -0.4% | 5% | 3%
CCO[C@@H]1OC(C(=O)N2CCN(Cc3ccccc3)CC2)=C[C@H](c2ccc(Br)cc2)[C@H]1CCCO | x | x | -13% | x | u | x | 5% | -1%
Cn1c(=O)c2c(SCC(=O)NCC3CCCO3)nc(-c3ccccc3F)nc2n(C)c1=O (stereo not drawn) | -3% | x | x | 3%[46.1 µM] | -23% | 4.1% | x | x
NS(=O)(=O)c1ccc(N=Nc2c(=O)[nH]n3c(=O)c4c([nH]c23)CCCC4)cc1 | x | 18%[46.1 µM] | -2% | 3% | -15% | x | 1% | 0%
C=CCNC(=S)Nc1sc2c(c1C#N)CCCC2 | x | -6% | 8% | 27% | 18% | x | -15% | 0%
Cc1ccc(NC(=O)Cn2c(=O)nc(-c3ccccc3)c3ccccc32)cc1 | 5% | x | x | 4%[46.1 µM] | 0% | -0.8% | x | x
O=C(N/N=C/c1ccc([N+](=O)[O-])cc1)c1cc(-c2ccc3c(c2)OCO3)n[nH]1 | x | x | 0% | x | -16% | x | 0% | 1%
CC1=NN(Cc2c(C)nn(Cc3ccccc3)c2C)C(C)(C)C1 | x | -2% | x | -4% | -9% | x | 20% | -1%

Screening results (PubChem BioAssay)
